NS1 function inh: qHTS Assay for Inhibitors of Influenza NS1 Protein Function | S. cerevisiae slowed by influenza A NS1, growth recovery by OD600 | Potency, µM (series often up to 46.1 µM), without a hit: top-dose activity, positive = more growth | 270,000 tested, 0.4% active | AID 2326, 2010; active means well fitted rising curve with a large enough effect; inconclusive means small, poorly fitted or top-dose-only effect; inactive means no such curve, though single readings can be large or run the other way; also: nearly all actives have a fitted effect of over 50% in size
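S. cerevisiae expressing influenza A NS1, grown in glucose, washed, then diluted 1:100 into pH 6.0 -URA galactose medium with 23 nl compound. Growth recovery read as OD600; NS1-free strain serves as control.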
Marburg entry inh: qHTS for inhibitors of binding or entry into cells for Marburg Virus; AID 540276, 2011; Marburg virus pseudotyped entry inhibition, cell reporter; control for the full effect not named in the record; about a third of the inactives were read at about 46 µM; Potency, µM (top dose mostly 37.8 µM), for the others: at the top dose activity change, negative = inhibition, most hits filed as inhibitors; 300,000 tested, 1.8% active; active = well fitted inhibition curve with a large enough effect; inconclusive = small, poorly fitted or top-dose-only effect, or effect the other way; inactive = flat fitted curve, though single readings scatter; tested in HEK293 cells; about a fifth of its hits are not listed in these tables; also: % is scaled to controls: 0 for no effect and ±100 for the full control effect; luciferase read-out
Cruzain Triton: qHTS Assay for Promiscuous and Specific Inhibitors of Cruzain (with detergent). AID 1478, 2009. 200,000 tested, 0.43% active. Potency, µM, inactives show max response, negative = inhibition, hits mostly inhibitors. purified cruzain, Z-FR-AMC fluorescence, 0.01% Triton. Cruzipain (Trypanosoma cruzi), P25779;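 also: plate controls were neutral wells for no effect and buffer without enzyme for full effect; nearly all actives have a fitted effect of over 40% in size; top concentration of the series not given in the record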
Target sequence (P25779 123-467 limits assumed): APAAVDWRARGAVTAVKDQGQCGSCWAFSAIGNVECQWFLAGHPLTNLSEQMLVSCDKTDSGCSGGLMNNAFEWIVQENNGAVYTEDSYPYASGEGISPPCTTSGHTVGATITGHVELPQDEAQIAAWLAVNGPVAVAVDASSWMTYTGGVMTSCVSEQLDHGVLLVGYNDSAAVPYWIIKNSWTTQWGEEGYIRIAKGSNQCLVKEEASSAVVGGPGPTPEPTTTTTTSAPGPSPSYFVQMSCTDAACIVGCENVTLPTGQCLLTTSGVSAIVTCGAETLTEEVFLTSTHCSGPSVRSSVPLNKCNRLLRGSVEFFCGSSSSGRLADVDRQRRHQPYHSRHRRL
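Cysteine protease activity tested under reducing, mildly acidic conditions (100 mM sodium acetate pH 5.5, 5 mM DTT) plus 0.01% Triton X-100. Cruzain 1.5 nM; substrate Z-FR-AMC 2 uM; 15 min compound preincubation at room temperature.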
RE007 growth inh: qHTS Assay for Inhibitors of the HIV-1 protein Vpr; Potency, µM (titrated, usually from 92.2 µM), inactives show at the highest dose activity change, negative = less growth; AID 651644, 2012; S. pombe RE007 Vpr strain, BacTiter-Glo ATP luminescence, 24 h; control for the full effect not named in the record; 360,000 tested, 0.21% active; active = well fitted falling curve with a large enough effect; inconclusive = small, poorly fitted or top-dose-only effect; inactive = no such curve, though single readings can be large or run the other way;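 also: % is scaled to controls: 0 for no effect and ±100 for the full control effect; nearly all actives have a fitted effect of over 50% in size; the assay follows cell death caused by Vpr and the record does not say whether a fall means rescue or toxicity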
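Fission yeast RE007 carrying one integrated HIV-1 vpr copy, seeded at OD 0.01 in PMG+AL medium with 23 nL pinned compound. Grown 24 h at 30 degrees; viability read by BacTiter-Glo luminescence after 5 min.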
2A StopGo: High Throughput Screening for Foot and Mouth Disease Virus Antivirals | human cells with a luciferase reporter of 2A StopGo recoding; control for the full effect not named in the record | 410,000 tested, 1.2% active | Potency, µM (highest dose often 57.9 µM), without a hit: at the top dose signal change, negative = less light; active = well fitted falling curve with a large enough effect; inconclusive = small, poorly fitted or top-dose-only effect; inactive = no such curve, though single readings can be large or run the other way; tested in HEK293T cells; also: % is scaled to controls: 0 for no effect and ±100 for the full control effect; nearly all actives have a fitted effect of over 45% in size; luciferase light after 4 h
Lassa entry inh: qHTS for Inhibitors of binding or entry into cells for Lassa Virus. Lassa virus pseudotype entry inhibition, cell reporter; control for the full effect not named in the record. Potency, µM (top dose mostly 37.9 µM), for the others: top-dose activity change, negative = inhibition, actives largely listed as inhibitors. 300,000 tested, 1.2% active; active means well fitted inhibition curve with a large enough effect; inconclusive means small, poorly fitted or top-dose-only effect, or effect the other way; inactive means flat fitted curve, though single readings scatter; tested in HEK293 cells; also: % is scaled to controls: 0 for no effect and ±100 for the full control effect; nearly all actives have a fitted effect of over 50% in size; luciferase read-out
Cruzain inh noDet: qHTS Assay for Promiscuous and Specific Inhibitors of Cruzain (without detergent); Cruzipain (Trypanosoma cruzi), P25779; AID 1476, 2009; 200,000 tested, 2.3% active; purified cruzain, Z-FR-AMC fluorescence, no detergent; Potency, µM, for inactives: max response, negative = inhibition, usual class: inhibitors;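 also: plate controls were enzyme without inhibitor for no effect and buffer without enzyme for full effect; nearly all actives have a fitted effect of over 40% in size; top concentration of the series not given in the record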
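Detergent-free condition (0.00005% Triton X-100) in acetate buffer pH 5.5 with DTT. 1.5 nM enzyme and compound were pre-mixed 15 min, then 2 uM Z-FR-AMC substrate added; reaction progress from fluorescence change between first and third reads (60 s).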
SARS PLP yeast: qHTS of Yeast-based Assay for SARS-CoV PLP; S. cerevisiae expressing SARS-CoV PLpro, growth rescue; control for the full effect not named in the record; Potency, µM (top dose mostly 32.9 µM), without a hit: top-dose activity, positive = growth rescue; 330,000 tested, 0.19% active; active means well fitted rising curve with a large enough effect; inconclusive means small, poorly fitted or top-dose-only effect; inactive means no such curve, though single readings can be large or run the other way; also: 0% is about no effect; nearly all actives have a fitted effect of over 55% in size; growth read by luminescence after 48 h
The depositor's hits bear a star; u = inconclusive; x = no result given; & = joins results of further samples; [ ] = dose if it differs, or a comment. Unless noted, calls follow the shape of the dose curve; as a rule, active = well fitted curve in the direction sought with a large enough effect; inconclusive = small, poorly fitted or top-dose-only effect, or another doubt; inactive = no such curve, though single readings can be large; an effect the other way counts as inactive or inconclusive. Potency is read from the fitted curve at half-maximal effect. Hits appear at their usual frequency; overall some 4.7% were active at least once.

SMILES	NS1 function inh	Marburg entry inh	Cruzain Triton	RE007 growth inh	2A StopGo	Lassa entry inh	Cruzain inh noDet	SARS PLP yeast
CCOC(=O)c1ccc(NC2=CC(c3ccc(Br)cc3)N(c3ccc(C(=O)OCC)cc3)C2=O)cc1 (stereo unspecified)	x	2%[46.1 µM]	4.1%	x	-19%	18%[46.1 µM]	-2%	x
COc1ccc(NC(=O)CSc2oc(-c3ccco3)nc2S(=O)(=O)c2ccc(C)cc2)c(OC)c1	x	-29%[46.1 µM]	-6.3%	x	0%	u	8%	x
COc1ccc(-c2noc3c2-c2nc(C4CCCCC4)sc2CC3)cc1	-6%	x	x	-8%	-28%	x	x	-6%
O=C(NCCN1CCOCC1)c1ccc(-c2ccccc2)cc1	-4%	u	-0.9%	-5%	4%	48%[14.3 µM]	2%	-3%
COc1ccc(CNC(=O)Cn2c(=O)cc(C)c3c(C)nn(-c4cccc(Cl)c4C)c32)cc1	x	x	0.0%	x	-21%	u	-4%	x
CCCCCC(=O)NCC(C)NC(=O)CCCCC (stereo unspecified)	-18%	6%	-0.9%	9%	-11%	-2%	13%	19%
O=C(Nc1ccc(CN2CCOCC2)cc1)c1ccc(-c2cccc(Cl)c2)o1	-13%	u	-24%	-23%	35µM*	-26%	u	-9%
COc1ccc(-c2nc3ccccc3o2)cc1NC(=O)CSc1ccc(Cl)cc1	-4%	u	0.4%&-3.5%	-5%	-10%&-6%	21%[46.1 µM]	2%&2%	-15%
Cc1ccc(CCN2CC(C(=O)NCCCN3CCCCC3)CC2=O)cc1 (stereo unspecified)	-5%	x	x	-3%	-20%	x	x	1%
CC1C/C=C/C=C/C=C/C=C/C(O[C@@H]2O[C@H](C)[C@@H](O)[C@H](N)[C@@H]2O)CC2OC(O)(CC(O)CC3OC3/C=C/C(=O)O1)CC(O)C2C(=O)O (stereo partly specified)	0%	2%	0.2%	x	x	-1%	u	1%
Cc1ccccc1Oc1nc2ccccc2n2cnnc12	x	-11%[46.1 µM]	x	-2%	8%	24%[46.1 µM]	x	-4%
Cc1cc(C(C)(C)C)ccc1OCCN1CCCC1	-1%	u	3.9%	-1%	-3%	-3%	-3%	-5%
CC1Cc2cc(S(=O)(=O)CCC(=O)Nc3ccc(F)cc3Cl)ccc2N1C(=O)C1CC1 (stereo unspecified)	x	x	-4.1%	x	-24%	7%[46.1 µM]	-7%	x
Cc1ccc2nc3c(cc2c1)c(NC(=O)C1CCCO1)nn3CC(C)C (stereo unspecified)	-5%	15%	1.4%	-5%	3%	-3%	u	-4%
CCn1c2ccccc2c2cc(NS(=O)(=O)c3ccc(C)cc3)ccc21	-2%	u	-4.8%	-12%	12%	u	u	-8%
COCCNC(=O)c1ccc(C2SCC(=O)N2CCc2ccccc2)cc1 (stereo unspecified)	-22%	x	x	-13%	-20%	x	x	1%
CN(CC(=O)Nc1cccc(F)c1)C(=O)Cn1c(=O)cnc2ccccc21	x	4%	x	-4%	-2%	10%	x	1%
Cn1cc(CN2CCC(n3nccc3NC(=O)CCc3ccccc3)CC2)cn1	7%	5%	x	-3%	-13%	24%	x	3%
COc1ccc(Cn2nnnc2C(c2cc3ccc(OC)cc3[nH]c2=O)N2CCC(C)CC2)cc1 (stereo unspecified)	6%	u	-4.7%	-7%	-10%	-8%	1%	-2%
CCSc1nc2c(cnn2-c2ccccc2)c(=O)n1N	-10%	u	x	-12%	21%	2%	x	-3%
CC(C)(C)OC(=O)N1CCC(c2c(C(=O)NC3CCCCC3)cnn2-c2ccc(F)cc2F)CC1	x	x	-2.3%	x	-8%	u	9%	x
CC1CCCN(C(=O)CN2C(=O)c3ccccc3S2(=O)=O)C1 (stereo unspecified)	x	-6%	x	u	2%	u	x	-1%
O=C(Nc1cc(SCC(O)CO)cc([N+](=O)[O-])c1)c1ccc(-n2cnnn2)cc1 (stereo unspecified)	1%	2%[46.1 µM]	x	11%	0%	-8%	x	0%
Cc1cc(C)n(-c2ccc(F)cc2CN2CCN(C3CCCC3)C(CCO)C2)n1 (stereo unspecified)	2%	-20%[46.1 µM]	x	0%	-14%	5%	x	0%
CC12CCC3c4ccc(O)cc4CCC3C1CC(=NO)C2O (stereo unspecified)	x	-2%	x	15%	-19%	u	x	x
Continued:
SMILES	NS1 function inh	Marburg entry inh	Cruzain Triton	RE007 growth inh	2A StopGo	Lassa entry inh	Cruzain inh noDet	SARS PLP yeast
CC(C)(C)C(=O)Nc1c(Br)c(C2CC2)nn1-c1ccccc1	3%	x	x	0%	-22%	x	x	1%
O=C1[C@H]2[C@H](ON3CCCC[C@H]23)C(=O)N1c1cccc(C(F)(F)F)c1	x	-24%[46.1 µM]	x	-7%	5%	2%	x	2%
CC1(C)Cc2c(sc3c2c(=N)n(Cc2ccco2)c(=O)n3CC(=O)Nc2ccc(Cl)cc2)CO1	2%	2%	-7.0%	-4%	-20%	u	-16%	-1%
O=C(c1cccs1)N1CCCC1	6%	13%	-0.8%	-1%	13%	-17%	4%	-4%
CN(c1ccccc1C(=O)O)S(C)(=O)=O	-1%	-34%	3.8%	13%	-2%	-16%	-11%	-1%
COc1ccc(S(=O)(=O)N2CCC(C(=O)N3CCN(C)CC3)CC2)cc1Cl	-2%	-4%[46.1 µM]	x	10%	-7%	22%	x	5%
Cc1c(NC(=O)Nc2ccc3c(c2)OCO3)cccc1[N+](=O)[O-]	2%	u	x	2%	5%	-17%[46.1 µM]	x	-5%
Cc1cc(Br)ccc1NC(=O)C1C2CCC(O2)C1C(=O)O (stereo unspecified)	-2%	-1%[46.1 µM]	x	9%	-13%	-12%[46.1 µM]	x	-3%
O=C(Nc1ccc(N2CCCC2)cc1)c1cccc(Cl)c1Cl	3%	-22%	x	-3%	58%[activator]	4%	x	-9%
CCSCCOC(=O)C1=C(C)NC(=O)NC1c1cc(OC)ccc1OC (stereo unspecified)	1%	-5%[46.1 µM]	2.2%	-15%	-15%	-4%	5%	u
CCOC(=O)COc1nc(-c2ccco2)cc(-c2ccco2)c1C#N	23%	0%[46.1 µM]	x	-11%	-17%	11%	x	1%
Cc1c(C(=O)/C=C/N(C)C)nnn1-c1ccc(Cl)c(Cl)c1	-5%	x	x	48%	17%	x	x	-3%
CNCCOCC(O)CSc1ccccc1 (stereo unspecified)	10%	-4%	-2.5%	0%	-10%	2%	0%	2%
Cc1ccc(C)c(CN2CCN(c3ncccn3)CC2)c1	-3%	-27%[46.1 µM]	x	-3%	-15%	5%[46.1 µM]	x	2%
Cc1onc(-c2ccccc2Cl)c1C(=O)OCC(=O)c1ccc2c(c1)OCCO2	u	u	-2.9%	-1%	u	u	25µM*	2%
CCOc1cc(N2CCOCC2)c(OCC)cc1NC(=O)CSc1nccc(C)n1	x	u	x	3%	-19%	-26%[46.1 µM]	x	0%
Cc1cc(NC(=O)CN2CCC(O)CC2)nc2c1c(=O)oc1ccccc12	x	20%[46.1 µM]	-2.8%	x	-12%	u	-3%	x
COc1ccc2c(CC(=O)OCC(=O)c3ccccc3OC)coc2c1	-13%	u	-18%	8%	-21%	1%	-6%	-5%
CCOCCCNC(=O)C1CCCCN1S(=O)(=O)c1ccc(F)cc1 (stereo unspecified)	0%	24%	5.6%	11%	-1%	u	14%	-5%
CCc1ccc(NC(=O)c2cnc3sc(N4CCCC4)nn3c2=O)cc1	x	x	1.6%	x	u	u	1%	x
O=C(/C=C/c1c(F)cccc1Cl)Nc1nn[nH]n1	5%	-4%[46.1 µM]	x	4%	6%	6%	x	-1%
O=S(=O)(CCSc1ccccn1)c1nc2ccccc2s1	-114%	u	-7.2%	u	u	-26%	-7%	-26%
O=c1cc(N2CCC(Cc3ccccc3)CC2)[nH]c(=O)n1C1CCCCC1	-16%	-18%	-0.8%	3%	-26%	-8%	2%	-6%

Already shown: 10 of the compounds above.
SMILES	NS1 function inh	Marburg entry inh	Cruzain Triton	RE007 growth inh	2A StopGo	Lassa entry inh	Cruzain inh noDet	SARS PLP yeast
Cc1ccc(C)c(CN2CCN(c3ncccn3)CC2)c1	-3%	-27%[46.1 µM]	x	-3%	-15%	5%[46.1 µM]	x	2%
Cc1onc(-c2ccccc2Cl)c1C(=O)OCC(=O)c1ccc2c(c1)OCCO2	u	u	-2.9%	-1%	u	u	25µM*	2%
CCOc1cc(N2CCOCC2)c(OCC)cc1NC(=O)CSc1nccc(C)n1	x	u	x	3%	-19%	-26%[46.1 µM]	x	0%
Cc1cc(NC(=O)CN2CCC(O)CC2)nc2c1c(=O)oc1ccccc12	x	20%[46.1 µM]	-2.8%	x	-12%	u	-3%	x
COc1ccc2c(CC(=O)OCC(=O)c3ccccc3OC)coc2c1	-13%	u	-18%	8%	-21%	1%	-6%	-5%
CCOCCCNC(=O)C1CCCCN1S(=O)(=O)c1ccc(F)cc1 (stereo unspecified)	0%	24%	5.6%	11%	-1%	u	14%	-5%
CCc1ccc(NC(=O)c2cnc3sc(N4CCCC4)nn3c2=O)cc1	x	x	1.6%	x	u	u	1%	x
O=C(/C=C/c1c(F)cccc1Cl)Nc1nn[nH]n1	5%	-4%[46.1 µM]	x	4%	6%	6%	x	-1%
O=S(=O)(CCSc1ccccn1)c1nc2ccccc2s1	-114%	u	-7.2%	u	u	-26%	-7%	-26%
O=c1cc(N2CCC(Cc3ccccc3)CC2)[nH]c(=O)n1C1CCCCC1	-16%	-18%	-0.8%	3%	-26%	-8%	2%	-6%
